Source: PubChem (National Center for Advancing Translational Sciences (NCATS))
NS1 function inh = qHTS Assay for Inhibitors of Influenza NS1 Protein Function; S. cerevisiae slowed by influenza A NS1, growth recovery by OD600; Potency, µM (highest dose often 46.1 µM), inactives show at the top dose activity, positive = more growth; 270,000 compounds, 0.4% hits; active means well fitted rising curve with a large enough effect; inconclusive means small, poorly fitted or top-dose-only effect; inactive means no such curve, though single readings can be large or run the other way; further: nearly all actives have a fitted effect of over 50% in size
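Read-out: OD600 growth recovery of NS1-expressing budding yeast. Cells grown overnight at 30C in -URA glucose medium, washed, resuspended and diluted 1:100 in 2% galactose assay medium, pH 6.0. Same strain lacking NS1 served as positive control.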
Cruzain Triton = qHTS Assay for Promiscuous and Specific Inhibitors of Cruzain (with detergent). Cruzipain (Trypanosoma cruzi), P25779. purified cruzain, Z-FR-AMC fluorescence, 0.01% Triton. Potency, µM, without a hit: max response, negative = inhibition, most hits filed as inhibitors. 200,000 compounds, 0.43% hits;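 further: plate controls were neutral wells for no effect and buffer without enzyme for full effect; nearly all actives have a fitted effect of over 40% in size; top concentration of the series not given in the record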
Target sequence (P25779 123-467 limits assumed): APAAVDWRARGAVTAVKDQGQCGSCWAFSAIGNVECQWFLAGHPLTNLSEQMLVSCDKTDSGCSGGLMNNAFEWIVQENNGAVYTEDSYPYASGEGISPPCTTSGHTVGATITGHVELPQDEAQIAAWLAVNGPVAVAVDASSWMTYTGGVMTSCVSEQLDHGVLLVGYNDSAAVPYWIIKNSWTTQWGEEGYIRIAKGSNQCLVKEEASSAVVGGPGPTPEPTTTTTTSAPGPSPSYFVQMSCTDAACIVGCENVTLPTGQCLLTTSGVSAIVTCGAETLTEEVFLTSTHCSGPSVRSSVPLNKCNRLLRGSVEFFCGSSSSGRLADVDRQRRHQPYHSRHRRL
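15 min RT preincubation of 1.5 nM cruzain with compound, then 2 uM Z-FR-AMC added; kinetic AMC fluorescence, 60 s delta. Triton X-100 0.01%, pH 5.5.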
2A StopGo = High Throughput Screening for Foot and Mouth Disease Virus Antivirals | 410,000 compounds, 1.2% hits | AID 1159524, 2015 | Potency, µM (highest dose often 57.9 µM), for the others: top-dose signal change, negative = less light | human cells with a luciferase reporter of 2A StopGo recoding; control for the full effect not named in the record; active = well fitted falling curve with a large enough effect; inconclusive = small, poorly fitted or top-dose-only effect; inactive = no such curve, though single readings can be large or run the other way; tested in HEK293T cells; further: on the % scale 0 is the no-effect control and ±100 the full control effect; nearly all actives have a fitted effect of over 45% in size; luciferase light after 4 h
RE007 growth inh = qHTS Assay for Inhibitors of the HIV-1 protein Vpr; S. pombe RE007 Vpr strain, BacTiter-Glo ATP luminescence, 24 h; control for the full effect not named in the record; Potency, µM (doses to about 92.2 µM), for inactives: at the top dose activity change, negative = less growth; 360,000 compounds, 0.21% hits; AID 651644, 2012; active = well fitted falling curve with a large enough effect; inconclusive = small, poorly fitted or top-dose-only effect; inactive = no such curve, though single readings can be large or run the other way;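 further: on the % scale 0 is the no-effect control and ±100 the full control effect; nearly all actives have a fitted effect of over 50% in size; the assay follows cell death caused by Vpr and the record does not say whether a fall means rescue or toxicity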
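Fission yeast strain RE007, carrying one chromosomally integrated HIV-1 vpr copy, was seeded at OD 0.01 in PMG+AL medium with 23 nL pinned compound. After 24 h at 30 °C and 99% humidity, viability was read by BacTiter-Glo luminescence.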
SARS PLpro yeast = qHTS of Yeast-based Assay for SARS-CoV PLP | S. cerevisiae expressing SARS-CoV PLpro, growth rescue; control for the full effect not named in the record | Potency, µM (series often up to 32.9 µM), without a hit: at the highest dose activity, positive = growth rescue | 330,000 compounds, 0.19% hits | AID 485353, 2010; active means well fitted rising curve with a large enough effect; inconclusive means small, poorly fitted or top-dose-only effect; inactive means no such curve, though single readings can be large or run the other way; further: 0% is about no effect; nearly all actives have a fitted effect of over 55% in size; growth read by luminescence after 48 h
Marburg entry inh = qHTS for inhibitors of binding or entry into cells for Marburg Virus | Marburg virus pseudotyped entry inhibition, cell reporter; control for the full effect not named in the record; about a third of the inactives were read at about 46 µM | Potency, µM (top dose mostly 37.8 µM), inactives show at the top dose activity change, negative = inhibition, most hits filed as inhibitors | 300,000 compounds, 1.8% hits | AID 540276, 2011; active = well fitted inhibition curve with a large enough effect; inconclusive = small, poorly fitted or top-dose-only effect, or effect the other way; inactive = flat fitted curve, though single readings scatter; tested in HEK293 cells; about a fifth of its hits are not listed in these tables; further: on the % scale 0 is the no-effect control and ±100 the full control effect; luciferase read-out
LASV entry inh = qHTS for Inhibitors of binding or entry into cells for Lassa Virus; Lassa virus pseudotype entry inhibition, cell reporter; control for the full effect not named in the record; Potency, µM (titrated, usually from 37.9 µM), for inactives: at the top dose activity change, negative = inhibition, most hits filed as inhibitors; AID 540256, 2011; 300,000 compounds, 1.2% hits; active means well fitted inhibition curve with a large enough effect; inconclusive means small, poorly fitted or top-dose-only effect, or effect the other way; inactive means flat fitted curve, though single readings scatter; tested in HEK293 cells; further: on the % scale 0 is the no-effect control and ±100 the full control effect; nearly all actives have a fitted effect of over 50% in size; luciferase read-out
Cruzain noTriton = qHTS Assay for Promiscuous and Specific Inhibitors of Cruzain (without detergent); purified cruzain, Z-FR-AMC fluorescence, no detergent; Potency, µM, without a hit: max response, negative = inhibition, actives largely listed as inhibitors; 200,000 compounds, 2.3% hits; AID 1476, 2009;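 further: plate controls were enzyme without inhibitor for no effect and buffer without enzyme for full effect; nearly all actives have a fitted effect of over 40% in size; top concentration of the series not given in the record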
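Purified cruzain at 1.5 nM, pre-incubated 15 min with compound at room temperature in 100 mM sodium acetate pH 5.5, 5 mM DTT, 0.00005% Triton X-100. Reaction started with 2 uM Z-FR-AMC; AMC fluorescence increase over 60 s gives rate.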
An asterisk follows results filed as active; ? = inconclusive; . = not tested or not shown; & = joins results of further samples; [ ] = another dose, or the depositor's remark. Unless noted, the call rests on the fitted dose curve; in most records, active means well fitted curve in the direction sought with a large enough effect; inconclusive means small, poorly fitted or top-dose-only effect, or another doubt; inactive means no such curve, though single readings can be large; an effect the other way counts as inactive or inconclusive. Potency means the concentration at half of the fitted maximal effect. Rows are unselected. Share with any hit: about 4.5%.

SMILES | NS1 function inh | Cruzain Triton | 2A StopGo | RE007 growth inh | SARS PLpro yeast | Marburg entry inh | LASV entry inh | Cruzain noTriton
Cc1cc(-c2csc(NC(=O)c3ccc(=O)n(C)n3)n2)c(C)n1CC1CCCO1 (stereo not given) | 20µM* | -9.4% | ? | -3.7% | -4.0% | -42.3% | -5.1% | ?
Cc1cn(Cc2ccccc2)c(=O)[nH]c1=O | -10.0% | 8.1% | . | -2.9% | 11.2% | 25.1% | 5.1% | 1.0%
O=C(NCc1ccc(F)cc1)c1ccc(CSc2nc3ccncc3n2Cc2ccc(F)cc2)cc1 | . | -8.3% | -21.1% | . | . | ? | . | 1.6%
O=C(N/N=C/c1ccncc1)c1ccc(NC(=O)c2ccc(Cl)cc2)cc1 | . | . | -6.0% | -11.5% | 2.0% | ? | -0.6%[46.1 µM] | .
O=c1[nH]c(Cc2cccs2)nc2scc(-c3ccc(Cl)cc3)c12 | -4.0% | . | -7.6% | 8.2% | 1.0% | -6.6%[46.1 µM] | 1.3% | .
O=C(CNC(=O)c1ccc(Cl)cc1)OCC(=O)c1ccccc1 | 6.2% | . | -2.9% | 5.9% | ? | ? | 6.9% | .
COc1cccc(CC(=O)OCC(=O)NC2(C#N)CCCC2)c1 | . | . | -15.8% | -18.1% | 0.7% | -2.9% | 5.6% | .
CCc1ccc(C2c3c(oc4ccc(C)cc4c3=O)C(=O)N2c2nc(C)c(C)s2)cc1 (stereo not given) | . | -0.2% | -19.6% | . | . | -1.9%[46.1 µM] | 20.8%[46.1 µM] | 16.6%
CC(C)C(=O)Nc1ccc(Oc2ccc3c(c2)C(=O)NC3=O)cc1 | 4.0% | . | -15.0% | 20.9% | 8.7% | 19.4% | 23.4% | .
CC1(C)OCC(COC(=O)Nc2cccnc2)([N+](=O)[O-])CO1 | . | . | -7.9% | -10.2% | 3.5% | 2.8%[46.1 µM] | . | .
CCCc1cc(C(=O)N2CCN(C(c3ccccc3)c3ccccc3)CC2)no1 | -116.0% | -3.6% | -21.1% | 8.3% | -41.3% | . | . | 1.8%
CC(=O)c1ccc(NS(=O)(=O)c2cc(-c3cnc(C4CC4)o3)ccc2C)cc1 | 6.3% | -8.2% | 30.6%&56.3%[activator] | 17.4% | -2.6% | -13.0%&-13.0%[46.1 µM] | -28.4%&-21.9%[46.1 µM] | -3.5%
Nc1ccc(Cl)c(-c2nc3ncccc3o2)c1 | 5.7% | -2.4% | 33.0%[activator] | -18.5% | -16.3% | 1.0% | ? | -6.0%
Cc1ccc(S(=O)(=O)n2cnc(C)c2)cc1 | 12.1% | . | 1.2% | 5.1% | 1.3% | . | . | .
N#CCCN(Cc1cccnc1)C(=O)c1ccc(S(=O)(=O)N2CCOCC2)cc1 | -14.6% | 1.3% | 0.0% | 14.8% | 1.6% | 29.3% | 10.8% | 2.0%
Cc1nn(-c2ccccc2)c(Cl)c1/C=N\NC(=O)c1cncc(Br)c1 | -6.5% | -9.7% | 8.5% | 10.0% | -6.0% | 0.0% | 0.0% | 1.9%
O=C(CCN1C(=O)COc2ccccc21)NCCN1CCN(c2cccc(Cl)c2)CC1 | -17.6% | -3.9% | . | 12.8% | 6.3% | -28.1% | -14.6% | 12.6%
COc1cccc(C(=O)Nc2ccc3[nH]ncc3c2)c1OC | -9.3% | . | 16.5% | -5.4% | -8.5% | -10.9% | -5.6% | .
Nc1cc(N)cc(C(=O)Nc2ccc3c(c2)C(=O)NC3=O)c1 | 7.2% | . | -0.7% | -10.6% | 0.2% | 7.6%[46.1 µM] | ? | .
O=C(NCc1cccc(Cl)c1)c1ccc2ccccc2n1 | -28.5% | . | 21.6% | 6.1% | -10.9% | ? | ? | .
O=C(NCCc1ccc(Cl)cc1)c1ccc(OCC2CCCO2)cc1 (stereo not given) | 15.5% | . | 27.6% | 9.1% | -1.0% | -1.8%[46.1 µM] | ? | .
O=c1c2cc(N3CCOCC3)ccc2[nH]c(=S)n1Cc1ccco1 | 26.9% | -9.6% | 8.6% | 0.5% | -3.9% | -6.1% | -12.0% | -29.9%
CC1CC(C)CN(CCCNC(=O)C2CCN(S(=O)(=O)N3CCCCC3)CC2)C1 (stereo not given) | -14.2% | 5.4% | . | -11.4% | -4.2% | -12.9% | -1.5% | 3.6%
CC(=O)c1ccc(NC(=O)CSc2nccn2C)cc1 | 0.2% | . | 51.2%[activator] | 3.9% | -0.1% | . | . | .
CC(=O)c1ccc(NC(=O)Cn2cc3c(n2)CCCC3)cc1 | . | -5.1% | 7.8% | . | . | 2.7%[46.1 µM] | 3.9%[46.1 µM] | -2.6%
Further compounds follow.
SMILES | NS1 function inh | Cruzain Triton | 2A StopGo | RE007 growth inh | SARS PLpro yeast | Marburg entry inh | LASV entry inh | Cruzain noTriton
Cc1ccc(C(=O)/C=C/c2ccc(Br)cc2)o1 | 5.1% | 3.9% | -22.2% | -20.1% | 5.1% | ? | -13.5% | -2.3%
Cc1ccc(CNc2nnc(C)c3nnn(Cc4ccc(F)cc4)c23)cc1 | . | 0.9% | 0.9% | . | . | 9.9%[46.1 µM] | -0.5%[46.1 µM] | 0.9%
O=C(O/N=C1\CCCCC1c1ccc([N+](=O)[O-])cc1[N+](=O)[O-])c1c(F)cccc1F (stereo not given) | ? | 0.1% | -20.8% | -10.8% | -0.5% | 14.5% | -17.6% | -15.5%
COc1ccccc1Nc1nc(NCc2ccco2)c2ccccc2n1 | -69.3% | . | ? | 4.5% | 2.1% | ? | -20.1% | .
CCCN1CCc2c(sc(NC(=O)CCS(=O)(=O)c3ccccc3)c2C(=O)OC)C1 | 15.1% | . | -11.2% | 1.9% | -5.0% | ? | -22.5% | .
COC(=O)c1ccsc1NC(=O)CN1CCN(c2ncccn2)CC1 | 0.1% | . | ? | 4.5% | -8.0% | ? | ? | .
O=C(NCc1ccco1)c1csc2c1CCCCC2 | -8.4% | -7.3% | . | -9.2% | -3.8% | 16.4% | 7.9% | 4.9%
COc1ccc(C(CC(=O)Nc2cc(OC)c(OC)c(OC)c2)N2Cc3ccccc3C2=O)cc1 (stereo not given) | . | -4.3% | 31.8%[activator] | . | . | . | -0.7%[46.1 µM] | ?
O=C(COC(=O)CCc1ccc(S(=O)(=O)N2CCOCC2)cc1)NCc1ccccc1 | . | . | -0.3% | -14.6% | 1.0% | 4.0%[46.1 µM] | 0.8%[46.1 µM] | .
O=C(CN1CCN(S(=O)(=O)c2ccc(Cl)cc2)CC1)c1ccc(O)c(O)c1 | 3.3% | . | -19.5% | 0.2% | -1.6% | . | . | .
Cc1ccc(CSCCNC(=O)c2ccccc2)cc1 | -26.1% | -4.4% | -18.0% | -10.8% | 5.6% | 3.2% | 0.4% | -7.5%
CCOc1ccc(S(=O)(=O)N2CCN(C(=O)c3cc(-c4ccccc4)nn3-c3ccccc3)CC2)cc1 | . | . | -26.3% | 19.8% | -4.7% | ? | ? | .
C=CCn1c(SCC(=O)N2N=C(c3ccco3)CC2c2ccco2)nnc1-c1ccncc1 (stereo not given) | 11.0% | -5.8% | -7.5% | 1.0% | 5.7% | 3.9% | 0.7% | -8.8%
O=C1C=C(O)c2[nH]c(=O)ccc2C1=O | . | . | 0.0% | 12.1% | . | ? | 11.6%[46.1 µM] | .
Cc1ccc2c(CC(=O)OC3CCOC3=O)coc2c1 (stereo not given) | -4.2% | -1.4% | 14.9% | -0.5% | -2.9% | 15.1% | 5.4% | 16.1%
O=C(Nc1ccc(S(=O)(=O)N2CCOCC2)cc1)c1ccc(Cl)cc1 | -5.1% | . | -15.0% | 21.3% | -2.4% | . | . | .
CC(=O)N1c2ccc(S(=O)(=O)N3CCC(C(=O)NC(C)c4ccccc4)CC3)cc2CC1C (stereo not given) | 5.1% | . | -19.2% | 5.5% | 8.4% | . | . | .
CCN1CCC(NC(=O)Nc2ccc(F)cc2F)CC1 | 3.5% | . | -0.2% | -15.6% | -1.7% | ? | 20.2% | .
CCCCCCOc1ccc(/C=C/C(=O)Nc2sc3c(c2C(=O)OC)CCC3)cc1OC | . | -7.3% | 14.1µM* | . | . | . | 20.2%[46.1 µM] | -5.0%
COCc1cc(C)nc2sc(C(=O)Nc3ccc(C(C)=O)cc3)c(N)c12 | . | -6.5% | 21.4% | . | . | ? | 5.0%[46.1 µM] | ?
CC1CCCC(NC(=O)c2ccc(CNc3c(N4CCCC4)c(=O)c3=O)cc2)C1C (stereo not given) | -27.8% | 0.4% | 0.3% | 1.8% | -0.3% | 2.3% | . | -0.1%
Cc1cc(NC(=O)CCC(=O)N(CC(=O)NCC2CCCO2)c2cccc(F)c2)no1 (stereo not given) | 4.9% | . | 3.5% | 26.9% | 1.3% | 0.2%[46.1 µM] | ? | .
COc1cccc(-c2c(NC(=O)c3ccco3)oc3ccccc3c2=O)c1 | -16.0% | . | -14.2% | -15.6% | ? | . | . | .
CCOc1ccc(CC(=O)NC2CC(=O)N(c3ccc4c(c3)OCCO4)C2)cc1 (stereo not given) | . | -0.3% | -2.7% | . | . | . | -2.7%[46.1 µM] | -6.6%
CC(C)C12CCC(C(=O)O)C(C1)C(=O)O2 (stereo not given) | 5.0% | 7.0% | -7.3% | -9.2% | 8.4% | 3.0% | ? | -3.4%

Single records, from the list above. Order of screens: NS1 function inh | Cruzain Triton | 2A StopGo | RE007 growth inh | SARS PLpro yeast | Marburg entry inh | LASV entry inh | Cruzain noTriton
Cc1ccc(C(=O)/C=C/c2ccc(Br)cc2)o1 in the list: 5.1% | 3.9% | -22.2% | -20.1% | 5.1% | ? | -13.5% | -2.3%
Cc1cc(NC(=O)CCC(=O)N(CC(=O)NCC2CCCO2)c2cccc(F)c2)no1 (stereo not given) in the list: 4.9% | . | 3.5% | 26.9% | 1.3% | 0.2%[46.1 µM] | ? | .
